LANA-H2A inh: blocks KSHV LANA binding to histone H2A/H2B. cell-free LANA-H2A/H2B peptide, fluorescence polarization. inhibition, % (test concentration not listed). 0.6% of 320,000 active; in the data active = inhibition mostly above about 10%, no sharp cut-off; inactive = mostly below about 6.7%;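 note: stock transfer was 7.5 nL into about 10 µL; 0% = median of vehicle wells and 100% = median of positive control wells; one replicate is shown; the record names a cut of 25% in any replicate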
HNF4A DNA FP: change in binding of human HNF4 alpha to DNA | HNF4a-FITC DNA binding, fluorescence polarization, 1 h | P41235 | 0.3% of 360,000 active | activity change, % at 10 µM; in the data active = activity change above about 30%, passing the limit was not always enough;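 note: controls were the assay level and a saturating level of protein; the project sought stronger binding though the title names inhibitors; some compounds called inactive have numbers as strong as hits; positive values seem to mean higher polarization but the record does not say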
FGF22 binding: binders of recombinant human FGF22 by thermal shift. SYPRO orange fluorescence; percent of sucrose octasulfate shift, DMSO zero. calls only at 9.99 µM. 1.5% of 340,000 active. AID 651658;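 active = melting point raised past a set limit in the mean and every replicate; inconclusive = no clear call; three in four hits are not shown here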
Target sequence (Q9HCT0 whole entry, looked up): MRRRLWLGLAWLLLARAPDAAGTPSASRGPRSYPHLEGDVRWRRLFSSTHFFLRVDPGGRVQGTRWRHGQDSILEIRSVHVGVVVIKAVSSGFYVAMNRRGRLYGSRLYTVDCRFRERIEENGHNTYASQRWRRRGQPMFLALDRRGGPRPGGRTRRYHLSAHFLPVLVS
UCH37 inh: blocks the human deubiquitinase UCH37 | Q9Y5K5 | purified proteasome/UCH37, Ub-AMC cleavage fluorescence | inhibition, % (no concentration beside the values) | 0.33% of 330,000 active;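 active = mean of two replicates above 20%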;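 note: 0% = compound-free wells with enzyme and 100% = wells lacking proteasome; stock transfer was 100 nL into about 20 µL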
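assay system = human UCH37 enzyme supplied as purified proteasome complex | amount = proteasome at 0.15 nM in the dispensed enzyme solution | schedule = 30 min compound-proteasome preincubation then 25 min substrate reaction, room temperature | measured by = fluorescence, ex 355 nm, em 460 nm | benchmarks = no-proteasome wells (full inhibition) and compound-free wells (no inhibition)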
Beta2AR agonist: activates human beta-2 adrenergic receptor causing internalization; P07550; Am2.2-beta2AR cells, FAP receptor internalization, flow cytometry; reference of the scale not given here; response, % (no concentration beside the values); 0.43% of 340,000 active; AID 504454;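 active = response above a set limit, near 3 SD of response in nonfluorescent compounds, cut at about 42% in these data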;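 note: stock transfer was 100 nL into about 11 µL; a reference agonist was the positive control; negative values mostly stem from fluorescent compounds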
Target sequence (P07550 whole entry, looked up): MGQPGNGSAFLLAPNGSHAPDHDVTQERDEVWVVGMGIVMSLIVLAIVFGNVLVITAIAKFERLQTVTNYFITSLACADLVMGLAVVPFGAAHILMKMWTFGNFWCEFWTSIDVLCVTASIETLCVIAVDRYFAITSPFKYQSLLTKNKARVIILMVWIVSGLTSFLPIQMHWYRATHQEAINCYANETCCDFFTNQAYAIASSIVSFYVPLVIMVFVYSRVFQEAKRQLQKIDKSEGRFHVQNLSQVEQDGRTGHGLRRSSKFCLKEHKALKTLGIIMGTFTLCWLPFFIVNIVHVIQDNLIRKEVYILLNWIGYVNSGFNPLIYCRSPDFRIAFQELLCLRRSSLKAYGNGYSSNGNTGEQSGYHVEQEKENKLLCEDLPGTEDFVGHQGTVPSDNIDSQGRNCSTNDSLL
Ecoli growth: inhibitors of Escherichia coli growth. OD600, 23 h; active compounds read low. OD600 absorbance (no concentration beside the values). 0.21% of 330,000 active. AID 1053175;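 active = OD600 absorbance below the run mean of sample wells minus 3.6 SD, in any replicate, cut at about 0.56 in these data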;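 note: stock transfer was 300 nL into about 60 µL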
ALR H2O2 inh: human ALR oxidase inhibition via reduced H2O2; P55789; purified ALR, DTT oxidation, H2O2 HRP-luminol luminescence; inhibition, % (no concentration beside the values); 3.8% of 290,000 active;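 active = mean and each replicate at 75% or more; inconclusive = only one of the two met; inactive = neither met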;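 note: stock transfer was 7.5 nL into about 7.5 µL; 0% = neutral wells and 100% = wells with inactivated enzyme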
Target sequence (P55789 whole entry, looked up): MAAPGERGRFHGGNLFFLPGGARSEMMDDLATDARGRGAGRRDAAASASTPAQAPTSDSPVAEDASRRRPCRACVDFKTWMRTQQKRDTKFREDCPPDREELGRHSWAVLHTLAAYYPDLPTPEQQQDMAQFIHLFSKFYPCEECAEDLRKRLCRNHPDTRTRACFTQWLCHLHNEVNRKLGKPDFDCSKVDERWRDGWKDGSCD
An asterisk follows results filed as active; i = inactive; ? = inconclusive; / = not tested or not shown. This is a subset, so the mix of outcomes need not match the whole.

Every second line gives: Ecoli growth	HNF4A DNA FP	UCH37 inh	Beta2AR agonist	FGF22 binding	ALR H2O2 inh	LANA-H2A inh
- Cc1cccc(C)c1NC(=O)COC(=O)c1cc(=O)c2ccccc2o1
→ 0.68	-0.2	3.2	22	i	1	-3.5
- CCN(CC)CCNC(=O)C1CCC(=O)N(c2ccc(OC)cc2)C1c1ccc(F)cc1 (centres undefined)
→ 0.69	3.1	1.9	-2	/	-3	-1.1
- Cc1cc(C)n2c(SCc3ccc(Cl)cc3Cl)nnc2n1
→ 0.78	0.6	4.6	16	/	1	-1.9
- C=CCNC(=O)/C(C#N)=C/c1cn(-c2ccccc2)nc1-c1ccc(OC)c([N+](=O)[O-])c1
→ 0.69	-2.3	-56	-7	/	3	i
- C=CCc1ccc(OCCOCCOc2cccc3cccnc23)c(OC)c1
→ 0.68	1.1	3.3	-6	i	-6	5.1
- O=C(c1ccco1)N1CCN(c2nc(C3CC3)nc3c2nnn3Cc2ccccc2Cl)CC1
→ 0.77	-5.1	1.3	0	/	0	-0.8
- O=C(Nc1ccc(F)c(F)c1)c1cc(S(=O)(=O)N2CCN(c3ccccn3)CC2)ccc1F
→ 0.65	-1.7	2.7	0	/	-4	-0.8
- CCN=C1SC(CC(=O)NCCc2ccc(OC)cc2)C(=O)N1CC (centres undefined)
→ 0.7	0.2	-0.2	2	/	-9	1.7
- CC(C)=CCN1CCN(Cc2cnc(N3CCOCC3)s2)CC1CCO (centres undefined)
→ 0.7	7.5	1.4	6	/	/	3.9
- O=C(N/N=C/c1ccc[nH]1)c1ccc(O)cc1
→ /	7.6	/	-3	i	23	-2.2
- O=C(Nc1ccc2[nH]c(=S)sc2c1)c1ccccc1
→ 0.69	-2.3	9.1	5	/	99*	0.9
- COc1cccc(OCc2nnc3n2N=C(c2ccccc2)C(CC(=O)O)S3)c1 (centres undefined)
→ 0.66	-0.4	5.8	6	i	/	0.8
- Nc1ccccc1N=Cc1ccc(-c2cccc(Cl)c2)o1
→ /	-0.4	-107	-5	i	1	3.4
- CCN(CC)c1ccc(/C=C(/C#N)C(=O)NC(C)C)o1
→ 0.68	184	29*	7	i	99*	-54
- COc1cc(CNc2ccc(N3CCCCC3)cc2)ccc1OCC(=O)NC(C)(C)C
→ 0.68	-1.0	5.6	1	i	99*	-1.3
- Cc1ccc(OCC(=O)Nc2ccc3c(c2)CCC3)c([N+](=O)[O-])n1
→ 0.69	1.0	1.2	-4	i	-5	-1.4
- CCOC(=O)/C(C#N)=C/c1ccc(OC(=O)c2ccccn2)cc1
→ 0.65	16	7.0	4	i	98*	0.4
- CC(C)C[C@H](NC(=O)c1nc[nH]c1C(=O)NCc1ccc(CNC(=O)OC(C)(C)C)cc1)C(=O)OCc1ccccc1
→ /	0.6	5.2	22	i	/	-5.8
- COc1cccc(CNC(=O)CCNC(=O)C2CCN(S(=O)(=O)c3ccccc3)CC2)c1
→ 0.7	-2.2	2.6	-4	i	1	-0.2
- CC(C)(O)C#Cc1ccc(CN2CCC(CO)(CCc3ccccc3)CC2)cc1
→ 0.67	-0.7	1.6	-3	i	-2	1.0
- CC(C)CN(C(=O)COC(=O)COc1ccc2c(c1)CCC2)c1c(N)n(Cc2ccccc2)c(=O)[nH]c1=O
→ 0.72	-2.4	2.4	-4	i	-11	-5.5
- CNCCC=C1c2ccccc2C=Cc2ccccc21
→ 0.62	3.7	2.0	10	i	-6	14
- COc1cc(C(=O)OCC(=O)N2c3ccccc3NC(=O)C2(C)C)ccc1OCC(C)C
→ 0.65	-0.6	2.7	3	i	34	-0.8
- CC(C)(C)N1C(=O)c2ccc(C(=O)Nc3ccc(-c4nc5ccccc5[nH]4)cc3)cc2C1=O
→ 0.68	0.4	0.6	5	/	-6	-3.8
- Cc1ccc(C(=O)OCC(=O)Nc2ccccc2)cc1NC(=O)c1ccco1
→ 0.63	2.9	1.4	11	/	-7	-1.3
- CC(=O)N(C)c1ccc(NC(=O)/C=C/c2ccccc2Cl)cc1
→ 0.74	-2.7	7.5	10	/	-2	3.5
- Cc1cccc(NC(=O)CSc2nc3ccccc3c(=O)n2CC2CCCO2)c1 (centres undefined)
→ 0.69	1.6	1.3	-8	i	48	4.6
- CC1(CCBr)C(=O)N(c2ccccc2)c2ccccc21 (centres undefined)
→ 0.64	-3.0	3.3	2	i	/	-0.4
- O=C1/C(=C/N(C(=O)c2ccco2)c2ccc(Cl)cc2)Sc2ccccc21
→ 0.7	13	4.4	4	/	-1	i
- O=C1C2CCCCC2C(=O)N1c1nccs1 (centres undefined)
→ 0.72	0.9	-0.4	-2	i	-10	2.1
- Cc1ccc(NS(=O)(=O)c2cccc(C(=O)NCCCn3ccnc3)c2)cc1
→ 0.66	4.3	0.4	-11	i	-4	2.7
- COc1ccc(-c2noc(CN(C(=O)c3ccoc3C)C(C)C)n2)cc1
→ 0.67	0.0	-0.3	-2	i	/	5.4
- Cc1ncc([N+](=O)[O-])n1CC(=O)Nc1ccc(F)c(F)c1
→ 0.64	2.7	3.8	2	i	13	-3.1
- O=S(=O)(c1ccc(N2CCCC2c2nc3ccccc3s2)nc1)N1CCOCC1 (centres undefined)
→ 0.7	-3.9	2.5	9	/	-6	1.1
- Cc1[nH]c2ccccc2c1Cc1n[nH]c(=S)o1
→ 0.77	-1.2	1.5	37	i	96*	0.1
- COc1ccc(CCNC(=O)COC(=O)c2ccccn2)cc1
→ 0.71	-5.0	4.6	2	i	-1	2.6
- COC(=O)COc1ccc(S(=O)(=O)Nc2ccc3c(c2)OCO3)cc1Cl
→ 0.71	-1.1	-0.1	23	/	7	-0.6
- COc1ccc2c(c1OC)C(=O)N1C2SC[C@H]1C(=O)NC1CCCCC1 (some centres undefined)
→ 0.73	2.6	-129	-5	i	-1	1.3
- O=C(CCn1nc(-c2ccc(Cl)cc2)c2ccccc2c1=O)NCC1CCCO1 (centres undefined)
→ 0.68	0.6	0.9	-18	/	-3	-0.9
- Cc1ccc(S(=O)(=O)N/N=C2/CC(c3ccccc3)Oc3ccccc32)cc1[N+](=O)[O-] (centres undefined)
→ /	2.0	/	6	/	-1	-1.6
- O=c1cc(CNc2ccc(Br)cc2)nc2sccn12
→ 0.63	-0.1	2.4	-14	i	37	-1.6
- C/C(=N/NC(=O)c1cc(C)[nH]n1)c1ccco1
→ /	-1.1	/	1	i	13	3.5
- COc1ccc2sc(-c3ccc(N(C)C)cc3)c(-c3ccc4cc[nH]c4c3)c2c1
→ /	3.7	/	-6	i	-4	-5.6
- CCOCCCN(CCC#N)C(=O)C1CCN(S(=O)(=O)c2ccc(-n3cnnn3)cc2)CC1
→ 0.66	-0.5	-1.3	-1	i	0	1.4
- O=C(Nc1sc(-c2ccccc2)cc1C(=O)O)c1ccccc1
→ 0.67	2.3	-14	9	i	70	-3.4
- Cc1cccc(N(CC(=O)NC2CCCCC2)C(=O)c2csnn2)c1
→ 0.66	-4.2	5.2	2	i	-7	-0.5
- COC(=O)CCC(=O)Nc1nccs1
→ 0.7	-4.1	3.2	3	/	-30	-3.4
- Cc1c(NC(=O)c2cccs2)cccc1NC(=O)c1cccs1
→ 0.69	-0.8	-1.9	-2	i	-8	-6.7
- COc1ccccc1-n1c(SCC(=O)Nc2nnc(C)s2)nc2c(c1=O)SCC2
→ 0.76	-0.7	7.3	-3	/	-2	1.1
- Fc1ccc(C2c3cccn3CCN2C(=S)Nc2cccc(F)c2)cc1 (centres undefined)
→ 0.66	2.6	5.8	1	i	-5	3.8
- COc1ccc(OC)c(CN2CCN(C(=O)c3ccc(S(=O)(=O)Nc4ccccc4F)cc3)CC2)c1
→ 0.67	-1.5	-0.2	5	i	-1	3.6
- CCOc1ccc(OCC)c2sc(C)nc12
→ 0.69	4.8	1.2	-3	/	-11	0.3
- CCOC(=O)Cn1nc(C)c(NC(=O)c2ccc(Br)o2)c1C
→ 0.69	-0.7	2.0	2	i	/	2.3
- Cc1cccnc1NC(=O)C1CCCN1S(=O)(=O)c1ccc(Cl)cc1 (centres undefined)
→ 0.64	3.0	0.1	-9	i	-8	1.9
- COC(=O)c1cc2occc2n1CC(=O)N(C)C1CCCCC1
→ 0.69	0.4	3.6	0	i	-3	-0.2
- CCN(CC)S(=O)(=O)c1ccc(OC(C)C)nc1
→ 0.67	-3.7	1.8	-1	/	-2	1.8
- CCO[C@H]1OC(C(=O)NC2CC2)=C[C@@H](c2ccc(Br)cc2)[C@@H]1CCCO
→ /	6.7	0.3	-10	i	-4	4.8
- COC(=O)Nc1cc(C)nc2ccccc12
→ 0.67	3.3	-0.1	10	/	-7	0.8
- COc1ccccc1OCCn1nnc2ccccc21
→ 0.62	-1.0	2.9	-6	i	0	4.1
- CN(C)CCCNC(=O)N1c2ccccc2Sc2ccccc21
→ 0.69	-0.8	2.7	-7	/	?	5.3

Laid out differently: entries from further up.
Structure	Ecoli growth	HNF4A DNA FP	UCH37 inh	Beta2AR agonist	FGF22 binding	ALR H2O2 inh	LANA-H2A inh
COc1ccc(OC)c(CN2CCN(C(=O)c3ccc(S(=O)(=O)Nc4ccccc4F)cc3)CC2)c1	0.67	-1.5	-0.2	5	i	-1	3.6
CCOc1ccc(OCC)c2sc(C)nc12	0.69	4.8	1.2	-3	/	-11	0.3

Next entries:
Every second line gives: Ecoli growth	HNF4A DNA FP	UCH37 inh	Beta2AR agonist	FGF22 binding	ALR H2O2 inh	LANA-H2A inh
- CCNS(=O)(=O)c1ccc(NC(=O)Nc2ccc3c(c2)OCO3)cc1
→ 0.65	-0.8	1.5	12	i	-3	1.4
- Cc1cc(C)nc(SCC(=O)Nc2ccc(N3CCOCC3)cc2)n1
→ 0.68	-3.7	6.4	3	/	98*	3.2
- CNc1snc(C)c1C(=O)OC(C)C(=O)Nc1cccc(C)c1 (centres undefined)
→ 0.72	-2.2	4.1	-4	/	2	-1.7
- COc1ccc(-c2cn[nH]c2-c2ccc(OCC(=O)NN)cc2O)cc1OC
→ 0.66	-0.4	2.9	-6	i	-8	2.0
- O=C(NC(=S)Nc1nc(-c2cccc3ccccc23)cs1)c1cc2ccccc2o1
→ /	2.4	/	-6	i	-4	-0.5
- CCOC(=O)c1sc(NC(=O)c2c(CC)noc2C)nc1C
→ 0.7	-1.8	5.0	-6	i	11	-11
- COCCNC(=O)C(OC(=O)c1ccco1)c1ccccc1Cl (centres undefined)
→ 0.69	-2.3	4.3	7	i	-9	-0.6
- COc1ccc(/C=C/C(=O)c2oc3ccc(F)cc3c2C)cc1
→ 0.7	1.8	3.8	6	/	-8	-1.0
- Cc1cc(C)cc(NC(=O)C2CCN(c3nc(C)cc(C)n3)CC2)c1
→ 0.67	3.8	0.2	6	/	-8	-0.7
- Cc1nc(NN)c2c3c(sc2n1)COC(C)(C)C3
→ 0.71	-0.7	3.1	-3	i	-1	0.2
- CCCCCC(=O)N/N=C/c1ccco1
→ /	-0.3	/	-6	i	4	4.0

Screens from PubChem.
